# VACV mCherry inh: inhibitors of vaccinia virus infection (mCherry reporter signal). Potency, µM (highest dose often 36.5 µM), for the others: top-dose activity change, negative = inhibition, usual class: inhibitors. Vaccinia virus mCherry reporter infection, fluorescence; about a quarter of the inactives have no number. hit rate 0.63% among 310,000; active = well fitted inhibition curve with a large enough effect; inconclusive = small, poorly fitted or top-dose-only effect; inactive = no such curve, though single readings can be large or run the other way; tested in A549 cells; note: nearly all actives have a fitted effect of over 35% in size; inactives centre near -10
# VACV Venus inh: vaccinia inhibition (Venus reporter). hit rate 0.46% among 330,000. AID 720580. Potency, µM (titrated, usually from 36.5 µM), for inactives: at the highest dose activity change, negative = inhibition, hits mostly inhibitors. Vaccinia virus Venus reporter expression, fluorescence; active means well fitted inhibition curve with a large enough effect; inconclusive means small, poorly fitted or top-dose-only effect; inactive means no such curve, though single readings can be large or run the other way; tested in A549 cells; note: nearly all actives have a fitted effect of over 30% in size; inactives centre near -10
# * hit, by the source's call; i = inactive; ? = inconclusive; . = not tested or not shown; & = joins results of further samples; [ ] = remark or other dose. % is set by controls: 0 for no effect and ±100 for the full control effect; potency is the fitted concentration of half-maximal effect.
Compound	VACV Venus inh	VACV mCherry inh
COc1ccc(-c2noc(CN3CCN(c4ccccc4)CC3)n2)cc1	-1%	-6%
COc1cc(/C=C/C(=O)OCC(=O)Nc2cccc(Oc3ccccc3)c2)ccc1O	-12%	-24%
CCN(c1ccccc1)S(=O)(=O)c1ccc(-c2cc(C)no2)s1	-17%	-32%
COc1ccc(CNC(=O)C2CCN(S(=O)(=O)N3CCC4(CC3)OCCO4)CC2)c(OC)c1	-3%	8%
CC1(C)CC(NS(=O)(=O)c2ccc(F)cc2)CC(C)(C)N1	-1%	i
CC1(C)Cc2c(cnn2-c2ccccc2)C(NC(=O)c2ccc[n+]([O-])c2)C1 (centres undefined)	-8%	-12%
COc1ccc(-c2c(C#N)c(SCC(=O)Nc3cccc(Cl)c3)nc(C)c2C(=O)Nc2ccccc2)cc1OC	-1%	?
CC[C@@H](C)C(NC(=O)OC(C)(C)C)c1cn([C@@H](CCCCNC(=O)OC(C)(C)C)C(=O)N2CCN(C(=O)OC(C)(C)C)CC2)nn1 (some centres undefined)	-28%	i
CCCCN1C(N)=NC[C@@H]1CC1CCCCC1	-11%	-8%
O=C(c1ccccc1)N1CCN(Cc2ccccc2Br)CC1	-17%	-20%
CCOC(=O)c1c(NC(=O)CCl)sc(C(=O)N(CC)CC)c1C	-17%	-21%
Cc1ccc(N(CCC(=O)NC(C)(C)C)S(=O)(=O)c2ccc(C)cc2)cc1	-8%	i
Cc1[nH]n(-c2ccccc2)c(=O)c1-c1ccccc1	-23%	.
Cc1cccc(NC(=O)CSc2cccc[n+]2[O-])c1C	-5%	i
CCOC(=O)C1=C(O)CSC1=Nc1cccc(Cl)c1	-19%	.

# Full records from above.
# COc1cc(/C=C/C(=O)OCC(=O)Nc2cccc(Oc3ccccc3)c2)ccc1O in the list: VACV Venus inh: -12%; VACV mCherry inh: -24%
# CCN(c1ccccc1)S(=O)(=O)c1ccc(-c2cc(C)no2)s1 in the list: VACV Venus inh: -17%; VACV mCherry inh: -32%

# (continued)
Compound	VACV Venus inh	VACV mCherry inh
O=C(O)CNC(=O)C(Cc1ccccc1)NC(=O)OCc1ccccc1 (centres undefined)	-7%	i
O=C(NC1CCS(=O)(=O)C1)c1ccc(S(=O)(=O)N2CCCC2)cc1 (centres undefined)	-12%	i
COc1ccccc1CNS(=O)(=O)c1ccc2c(c1)CC(C)N2C(C)=O (centres undefined)	-14%	-8%
CCCCNC(=S)N=Nc1c(O)[nH]c2ccccc12	-29%	?
COc1ccccc1N1CCN(/N=C/C(Cl)=C/c2ccccc2)CC1	-9%	-22%
CC(=O)c1ccc(NC(=S)NC(=O)CC(C)C)cc1	11%	i
COc1cc(/C=N\NC(=O)CNC(=O)C2COc3ccccc3O2)ccc1O (centres undefined)	-17%	-18%
C=CC(=O)Nc1cccc(Oc2cc(Cl)nc3[nH]ccc23)c1	1.6µM*	?
CC(C)CNC(=O)COC(=O)c1cc(S(=O)(=O)N2CCCCC2)ccc1N1CCOCC1	-8%	.
Fc1ccc(-c2nnc(CN3CCN(c4ncc(C(F)(F)F)cc4Cl)CC3)o2)cc1	?	-9%
COC(=O)c1[nH]c2ccc(C)cc2c1NC(=O)CN1CCc2cc(OC)c(OC)cc2C1	?	.
CNC[C@@H]1OCc2ccccc2-c2c(n(C)c3ccccc23)C(=O)N([C@H](C)CO)C[C@H]1C	-29%	-5%
Cc1c(C(=O)N2CCOCC2)[nH]c2c1C(=O)CC(c1ccccc1Cl)C2 (centres undefined)	?	?
O=C(Cn1ncc2c3ccccc3n(Cc3cccc(Cl)c3)c2c1=O)NCCCN1CCCCC1	3%	-7%
O=C1C=C(/C=C/c2ccccc2)C[C@@H](c2ccc(F)cc2)C1	-29%	?

# Going on with the list.
Compound	VACV Venus inh	VACV mCherry inh
COc1cccc(OCc2cc(C(=O)N3CCNC(=O)C3Cc3ccccc3)no2)c1 (centres undefined)	-6%	-23%
CCNC(=O)n1cc(-n2cncn2)c(-c2ccc(Cl)cc2)n1	-17%	i
CN1OC[C@@H]2CN[C@H](c3cccc(Oc4ccccc4)c3)C[C@@H]21	-15%	?
O=C(Nc1c2c(nn1-c1ccccc1)CS(=O)C2)c1ccc(S(=O)(=O)N2CCOCC2)cc1 (centres undefined)	-7%	-8%
CCN(CCCNC(=O)CN1N=C(c2ccccc2)CCC1=O)c1ccccc1	-17%	-4%
CC(=O)c1ccc(CCCCCCCCCC(=O)O)s1	-17%	-26%
COc1ccc(C(=O)Nc2ccc(Cl)cn2)cc1Cl	-11%	-10%
O=c1c(N2CCCCC2)coc2ccccc12	-13%	i
CC(Oc1ccccc1F)C(=O)Nc1ccc(-c2nc3ccccc3s2)cc1 (centres undefined)	-29%	-10%
Cc1cc(SCC(=O)NC2CCCCC2)nc2ccccc12	-9%	-13%
O=C(Nc1c(-c2ccccc2)[nH][nH]c1=O)c1cccs1	-3%	i
CCCn1c(=O)c2c(nc3n2CCCN3CCc2ccccc2)n(C)c1=O	-19%	i
CCCCCCOc1ccc(/C=c2\s/c(=C(/C#N)C(=O)NCc3ccco3)n(-c3ccccc3)c2=O)cc1	1%	i
COc1ccc(C)cc1NC(=S)N1CCN(S(C)(=O)=O)CC1	-6%	-14%
O=C(Nc1ccc(F)cc1F)c1ccccc1NC(=O)C1CC=CCC1C(=O)O (centres undefined)	-15%	-1%

# Carrying on:
Compound	VACV Venus inh	VACV mCherry inh
CCCOc1ccc(-c2c(C(=O)N/N=C(\C)c3cccnc3)nnn2-c2nonc2N)cc1	-9%	i
O=C(CSc1nncs1)N1CCN(C(=O)c2ccco2)CC1	-5%	-8%
COc1ccc(S(=O)(=O)N2CCC(C(=O)NCc3ccc(C)cc3)CC2)cc1	0%	-21%
CC(C)c1ccc(NS(=O)(=O)c2ccc3[nH]cc(C(=O)N4CCCC4)c(=O)c3c2)cc1	5%	2%
COc1ccc(CN2CCN(C(=O)CN3C(=O)C4C5C=CC(C5)C4C3=O)CC2)c(OC)c1OC (centres undefined)	?	?
Cc1cccc(NC(=O)COc2cccc3c2CCNC3=O)c1	-12%	-6%
NC(=O)c1ccc(N2CCN(c3ccccc3F)CC2)c([N+](=O)[O-])c1	-16%	-15%
CCC(=O)N1CCc2cc(Br)cc(S(=O)(=O)N3CCC(C(=O)Nc4cccc(C)c4)CC3)c21	-21%	-20%
Nc1ccc(Nc2ccncc2)cc1	-11%	-1%
CC(C)COc1ccc(C(=O)NC(CC(C)C)C(=O)O)cc1 (centres undefined)	1%	-8%
COc1ccc(NC(=O)CSc2nncc3ccccc23)cc1	-11%	-23%
CC(NC(N)=O)C(=O)OCc1ccc(Cl)cc1Cl (centres undefined)	-5%	-11%
COC(=O)c1cccc2c1NC(=O)C2=O	-8%	-15%
O=C1CCCc2c1cnc1ncnn21	0%	i
O=C(NN=Cc1ccc2c(c1)OCO2)NN=Cc1ccc2c(c1)OCO2	-12%	-18%

# Look-ups from the list.
# Under VACV Venus inh, CCCOc1ccc(-c2c(C(=O)N/N=C(\C)c3cccnc3)nnn2-c2nonc2N)cc1 has the entry -9%
# Under VACV Venus inh, CC(C)c1ccc(NS(=O)(=O)c2ccc3[nH]cc(C(=O)N4CCCC4)c(=O)c3c2)cc1 has the entry 5%

# Next part:
Compound	VACV Venus inh	VACV mCherry inh
c1ccc(C(c2nnnn2Cc2ccco2)N2CCN(C3CCCC3)CC2)cc1 (centres undefined)	-5%	-11%
Cn1nccc1C(=O)Nc1ccn(C23CC4CC(CC(C4)C2)C3)n1	-20%	-26%
Cc1ccc2c(c1)C(=O)OC(C(=O)Nc1ncc(Cc3ccccc3Cl)s1)C2 (centres undefined)	4%	6%
O=CNc1cc(-c2cccc(F)c2)cn2c(-c3ccc(F)cc3)cnc12	-14%	?
O=C(NCCc1nc(-c2ccccc2Cl)no1)C1CCCCC1	-17%	-13%
O=C(NCC(F)(F)F)Nc1cccnc1	3%	.
Cc1ccc2oc3c(c(=O)c2c1)C1(C(=O)N(C)c2ccccc21)N(CCCO)C3=O (centres undefined)	5%	-5%
Cc1ccc(NC(=O)c2ccc3snnc3c2)cc1Cl	-3%	-1%
CC1(C)CC(=O)C2=C(C1)NC(=O)CC2	-5%	26%
O=C(C[C@H]1C/C=C\CC[C@@H](Cc2ccc(F)cc2)C(=O)OC[C@H]2CCCN2C1=O)NCCO	-16%	-15%
CN(c1ccccc1)S(=O)(=O)c1ccc(NC(=O)c2ccccc2C(=O)O)cc1	4%	i
CCOP(=O)(OCC)c1cccc(O)c1	-2%	-21%
CCOc1ccc(NC(=O)CN(C)C(=O)c2ccccc2-n2cnnn2)cc1OCC	-5%	-4%
CCOc1ccc(NC(=O)c2ccc(NC(=O)CCS(=O)(=O)c3cccs3)cc2)cc1	5%	-9%
Clc1ccc(-n2ncc3c(NC4CCCC4)ncnc32)cc1	-25%	0%

# The list continues:
Compound	VACV Venus inh	VACV mCherry inh
Cc1ccc(/C=C2\CCn3c2nc2cc(C(=O)O)ccc2c3=O)c(C)c1	4%	-5%
CCOc1ccc(N(CC(=O)N2CCc3ccccc32)S(=O)(=O)c2c(C)noc2C)cc1	-20%	-11%
CSCCC(NC(N)=O)C(=O)Nc1ccc2ccccc2c1 (centres undefined)	-16%	-5%
Cc1ccccc1NC(=O)CSc1nc2ccc(NC(=O)c3ccco3)cc2s1	-10%	i
CCCCn1c(=O)n(C)c(=O)c2c3c(sc21)COC(C)(C)C3	-16%	.
CCCc1cc(=O)oc2cc(C)c3c(-c4cccc(OC)c4)coc3c12	2%	-1%
Nc1nonc1C(=O)N/N=C/c1ccncc1	3%	-3%
CCOC(=O)c1cn2nc(Oc3ccccc3)ccc2n1	-16%	i
COC(=O)c1ccc2nc(-c3cccc(Br)c3)c(Cc3ccccc3)n2c1	-1%	-9%
COc1ccc(/C=C/C(=O)NC(=S)N2CCN(C)CC2)cc1	-9%	-15%
CCN1CCN(c2c(S(=O)(=O)c3ccccc3)cnc3ccc(Cl)cc23)CC1	-5%	-11%
Nc1cc(=O)[nH]c(SCC(=O)Nc2cc(S(=O)(=O)N3CCCCCC3)ccc2Cl)n1	-14%	-20%
O=C(NCc1ccc2c(c1)CCO2)Nc1cccc(C(F)(F)F)c1	-9%	-7%
CN1c2ccccc2C(=O)/C(=C\Nc2ccc(F)cc2)S1(=O)=O	0%	i
C=CC[n+]1c(-c2ccc(Cl)cc2Cl)csc1Nc1c(C)n(C)n(-c2ccccc2)c1=O	?	?

# Other entries:
Compound	VACV Venus inh	VACV mCherry inh
Cc1nn(Cc2ccc(Cl)c(Cl)c2)c(C)c1NC(=O)c1noc2c1CCc1ccccc1-2	-16%	?
C[C@]12CC[C@@H](O)CC1=CC(=O)C1C2CC[C@]2(C)C(=O)[C@H](O)CC12 (some centres undefined)	-1%	-28%
Cc1ccc(NC2=C(Cl)C(=O)OC2OC(=O)c2ccco2)cc1C (centres undefined)	-14%	-3%
CC(C)CNS(=O)(=O)c1ccc(S(=O)(=O)N2CCC(N3CCCCC3)CC2)cc1	0%	-11%
Cc1nc2nc[nH]n2c(=O)c1CC(=O)O	0%	-6%
CC(=O)c1c(C)[nH]c(C(=O)Nc2cccc(S(=O)(=O)N3CCOCC3)c2)c1C	-19%	-4%
O=C(N=Nc1c(O)[nH]c2ccccc12)Nc1ccccc1	-24%	-20%
CCOC(=O)c1csc(NC(=O)c2ccccc2)n1	2%	34%[activator]
COC(=O)C(Cc1c[nH]c2ccccc12)NC(=O)COc1cccc(C)c1 (centres undefined)	0%	-8%
CCn1c(COc2ccccc2)nnc1SCC(=O)c1cccc([N+](=O)[O-])c1	-9%	-18%
CCN(C[C@H]1N[C@@](C)(C(=O)OC)[C@H]2C(=O)N(C)C(=O)[C@@H]12)C(=O)Nc1ccc(C)cc1	-2%	i
CCCCCCC1CC(CCc2nc(=S)[nH][nH]2)C(=O)O1 (centres undefined)	-11%	-15%
COC(=O)c1ccccc1S(=O)(=O)NC(=O)c1ccccc1	-4%	.
CCOc1ccc(-c2cc(NC(=O)c3c(F)cccc3F)c(C(=O)O)s2)cc1	-16%	?
C/C(=N\NC(=O)C1CC1)c1ccccc1O	-13%	-21%

# Looked up by compound from the entries so far (four):
Compound	VACV Venus inh	VACV mCherry inh
O=C(C[C@H]1C/C=C\CC[C@@H](Cc2ccc(F)cc2)C(=O)OC[C@H]2CCCN2C1=O)NCCO	-16%	-15%
CCC(=O)N1CCc2cc(Br)cc(S(=O)(=O)N3CCC(C(=O)Nc4cccc(C)c4)CC3)c21	-21%	-20%
COc1cc(/C=N\NC(=O)CNC(=O)C2COc3ccccc3O2)ccc1O (centres undefined)	-17%	-18%
CCOc1ccc(N(CC(=O)N2CCc3ccccc32)S(=O)(=O)c2c(C)noc2C)cc1	-20%	-11%

# Further records follow.
Compound	VACV Venus inh	VACV mCherry inh
COc1ccc(CCNCc2ccc3c(c2)n(C)c(=O)n3C)cc1	-2%	-4%
Cc1ccc(-c2cnc(C(O)c3cc(F)cc(Cl)c3)[nH]2)cc1 (centres undefined)	-4%	13%
COc1cccc(-c2cc(C(=O)Nc3cccnc3Cl)no2)c1	-7%&-5%	-15%&-12%
CCS(=O)(=O)NCc1nnc2n1-c1ccc(Cl)cc1C(c1ccccc1)=NC2	-8%	-4%
CSc1sc(-c2n[nH]c(=S)n2C)c2c1C=CCC2	-9%	-19%
O=C(Nc1ccc(Cl)cc1C(=O)c1ccccc1)c1ccc(Br)o1	-13%	-15%
COc1cccc(-c2cc(NCc3cccs3)ncn2)c1	0%	-5%
Cc1oc2c(C)c3oc(=O)c(CCC(=O)NCCCN4CCCC4=O)c(C)c3cc2c1C	-9%	-9%
Cc1ccc(NC(=O)c2cccc(OCc3c(C)noc3C)c2)cc1S(=O)(=O)Nc1ccccc1Cl	-29%	-19%
O=C(NC(Cc1ccccc1)C(=O)O)/C(=C/c1cccc([N+](=O)[O-])c1)NC(=O)c1cccc(Br)c1 (centres undefined)	-3%	-4%

# Bioassay records from PubChem.
